Screening results deposited in PubChem BioAssay by National Center for Advancing Translational Sciences (NCATS).
TRPV1 PAM: potentiators of human vanilloid receptor 1 (TRPV1). Q8NER1. TRPV1-expressing cells, Fluo-8 calcium influx, capsaicin EC20 potentiation; host cell line not named in the record; control for the full effect not named in the record. potentiation, % at 8.33 µM. 320,000 compounds, 0.02% hits. AID 540277; active means potentiation above 80%; inconclusive means 30% to 80%; inactive means below 30%; note: 0% is about no effect
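Cells expressing TRPV1 were dye-loaded with Fluo-8 and read kinetically: 10 s baseline, 3 min after compound (agonist portion), then 2 min after EC20 capsaicin (allosteric enhancer portion). Calcium-bound dye fluorescence at 480/520 nm.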
Menin-MLL FL inh: inhibitors of human menin-MLL interaction, wild-type MLL peptide | Fluorescence polarization, fluorescein-MLL peptide displacement from menin | FP activity change, % at 61.4 µM | 290,000 tested, under 10 active | AID 1766; inconclusive = falling polarisation curve, or a change in total fluorescence; inactive = total fluorescence flat and polarisation flat or rising; no compound was filed as active; the % refers to the polarisation; negative = inhibition;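 note: % of control where 0% means no effect; inhibitors lower the polarisation; unlabelled MLL peptide was the positive control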
TRPML1 blocker: inhibitors of human TRPML1 channel. 390,000 compounds, 0.02% hits. TRPML1-inducible cells, Ca2+ dye fluorescence, FDSS; stronger effect = lower value; inhibition of EC80 agonist-evoked calcium signal. activity change, negative = inhibition, % (no concentration beside the values). Q9GZU1; in the data active means activity change below about -50%; inconclusive means about -30% to -50%; inactive means above about -30%;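 note: stimulus is agonist 54-4 at its EC80 concentration; % is set by controls: 0 for no effect and ±100 for the full control effect; compound concentration not given in the record; the text of the record puts the active cut at -80%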
Target sequence (Q9GZU1 whole entry, looked up): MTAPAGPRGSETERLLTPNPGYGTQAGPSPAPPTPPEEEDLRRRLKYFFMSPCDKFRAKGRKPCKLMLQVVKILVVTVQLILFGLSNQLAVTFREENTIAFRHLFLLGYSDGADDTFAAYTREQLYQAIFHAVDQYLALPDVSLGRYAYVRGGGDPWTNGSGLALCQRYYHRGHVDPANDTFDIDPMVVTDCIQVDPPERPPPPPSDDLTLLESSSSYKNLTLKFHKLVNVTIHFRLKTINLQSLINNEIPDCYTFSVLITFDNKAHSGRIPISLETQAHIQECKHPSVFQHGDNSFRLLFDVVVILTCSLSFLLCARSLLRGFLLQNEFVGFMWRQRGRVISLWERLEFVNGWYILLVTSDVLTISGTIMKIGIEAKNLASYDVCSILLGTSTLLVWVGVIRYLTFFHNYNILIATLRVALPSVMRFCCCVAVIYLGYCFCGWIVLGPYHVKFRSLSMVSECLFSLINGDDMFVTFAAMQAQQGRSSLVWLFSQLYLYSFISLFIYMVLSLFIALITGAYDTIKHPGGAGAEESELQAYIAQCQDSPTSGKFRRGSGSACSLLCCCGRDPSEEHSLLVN
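Calcium fluorescence in TRPML1-DL cells induced overnight with Tet: a 110 s read after compound pin addition, then a 110 s antagonist read after challenge with 54-4 at 4 uM final (EC80).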
ClpP mod: qHTS Assay for Activators of ClpP; ATP-dependent Clp protease proteolytic subunit (Bacillus subtilis (strain 168)), P80244; purified B. subtilis ClpP, FRET peptide cleavage, 20 min; Potency, µM (top dose mostly 57.5 µM), inactives show at the top dose activity change, negative = active; AID 651965, 2013; 340,000 compounds, 1.9% hits; active = well fitted falling curve with a large enough effect; inconclusive = small, poorly fitted or top-dose-only effect; inactive = no such curve, though single readings can be large or run the other way; note: potency is the fitted concentration of half-maximal effect; the source files actives as falling curves though it sought activators and does not explain the sign; nearly all actives have a fitted effect of over 65% in size; many hits overshoot -100%
Target sequence (P80244 whole entry, looked up): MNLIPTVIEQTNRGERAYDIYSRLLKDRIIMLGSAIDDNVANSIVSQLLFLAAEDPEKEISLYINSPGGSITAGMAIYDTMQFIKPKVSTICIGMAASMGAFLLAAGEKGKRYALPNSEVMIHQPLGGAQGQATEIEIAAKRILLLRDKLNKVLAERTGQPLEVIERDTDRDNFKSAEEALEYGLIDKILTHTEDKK
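Purified B. subtilis ClpP, 10 microg/mL final in Tris/HCl pH8 with KCl, BSA, glycerol and Tween-20, cleaved an Abz/nitrotyrosine-quenched decapeptide. Fluorescence (ex 320, em 430) was read at 0 and 20 min at room temperature. Delta was normalized to 5.8 microM ADEP and DMSO/no-enzyme controls.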
Sfp inh: inhibitors of Bacillus subtilis Sfp phosphopantetheinyl transferase; AID 1490; Potency, µM, for inactives: max response, negative = inhibition, most hits filed as inhibitors; 310,000 compounds, 3.5% hits; Biochemical Sfp PPTase activity, qHTS; Q9F4F7; active = well fitted inhibition curve with a large enough effect; inconclusive = small, poorly fitted or top-dose-only effect, or another doubt; inactive = no such curve, though single readings can be large or run the other way;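 note: the enzyme is Sfp with the accession as filed and its product quenches rhodamine fluorescence; potency is the fitted concentration of half-maximal effect; 0% = enzyme reaction without inhibitor and -100% = no enzyme wells; top concentration of the series not given in the record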
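Sfp 15 nM + cpd, 15 min RT; start w/ rhodamine-CoA 5 uM, BHQ-2-YbbR 12.5 uM (final); 50 mM Hepes pH 7.6, 10 mM MgCl2, 0.01% NP-40, 0.01% BSA; read 525/598 nm at 0 and 30 min.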
TRPML1 ag: activates the human TRPML1 channel | TRPML1-expressing cells, Ca2+ dye fluorescence, FDSS; host cell line not named in the record; reference of the full effect not given here | activation, % (no concentration beside the values) | 410,000 compounds, 0.12% hits | AID 624414; in the data active = activation above about 50%; inconclusive = about 30% to 50%; inactive = below about 30%; note: 0% is about no effect; the text of the record puts the active cut at 80%
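Tetracycline-induced TRPML1-DL cells are seeded and incubated overnight before loading with a no-wash Ca2+ dye and quencher. Agonist activity is taken from the 110 s fluorescence read following compound pin-transfer on an FDSS, before EC80 54-4 challenge.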
PINK1 expr mod: modulators of PINK1 expression; PINK1 immunofluorescence, high-content cytometry, 24 h; Potency, µM (titrated, usually from 76.6 µM), inactives show at the top dose activation (PINK1 increase), usual class: activators; 410,000 compounds, 0.2% hits; active = well fitted activation curve with a large enough effect; inconclusive = small, poorly fitted or top-dose-only effect; inactive = flat fitted curve, though single readings scatter; cell line not stated here;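 note: potency is the fitted concentration of half-maximal effect; % of control where 0% means no effect; nearly all actives have a fitted effect of over 65% in size; a mitochondrial uncoupler was the plate control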
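PINK1 protein level read as immunofluorescence by microplate cytometer in a fixed, stained stable cell line after 24 h exposure to five compound concentrations, with CCCP as control.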
* = called active by the depositor; ? = inconclusive; nt = no result given; [ ] = another dose, or the depositor's remark.

SMILES | TRPV1 PAM | Menin-MLL FL inh | TRPML1 blocker | ClpP mod | Sfp inh | TRPML1 ag | PINK1 expr mod
CCc1c(CN2CCN(c3ccc(F)cc3)CC2)csc1C | nt | nt | -9 | -0.7% | nt | -0.8 | 6.0%
Cc1ccc(-c2cc(C(=O)NC3CCCC3)no2)cc1 | 3 | -1.8 | 23 | nt | 24% | 1.5 | 2.4%
COc1cc2c(cc1OC)CN(C(=O)c1cccc(S(=O)(=O)N3CCc4ccccc43)c1)CC2 | 3 | nt | 17 | -3.3% | nt | 1.9 | -1.0%
Cc1oc(-c2ccccc2F)nc1CS(=O)CC(=O)NCc1ccccn1 (configuration not stated) | 14 | nt | 37 | -6.4% | -8% | -0.2 | -1.4%
COc1ccccc1NC(=O)COC(=O)C1CCCC1 | nt | nt | 4 | -2.5% | nt | -1.3 | 3.3%
CCCC(c1nnnn1CC1CCCO1)N1CCN(c2ccccc2)CC1 (configuration not stated) | 1 | ? | 3 | nt | -1% | -0.2 | 2.0%
O=C(CCC(=O)N(CC(=O)NC1CCCC1)C1CCCC1)Nc1ccccn1 | 17 | -1.7 | -15 | ? | -2% | 0.4 | -3.5%
Cc1ccccc1-n1nc2c(c1NC(=O)c1ccc(Br)o1)CSC2 | -18 | 0.1 | 16 | -2.0% | ? | 0.2 | 3.4%
COc1ccc(N2CCN(C(=O)CSc3nnc(-c4cccnc4)n3-c3ccccc3)CC2)cc1 | 7 | 4.4 | -12 | -3.4% | 16% | 0.8 | 0.9%
Cc1ccc(S(=O)(=O)N2CCC(NC(=O)C3CCCCC3)CC2)cc1 | 21 | 5.8 | 3 | 0.6% | 11% | -1.6 | 2.2%
Cc1ccc(NC(=O)CSC2=C(C#N)C(c3ccco3)CC(=O)N2)cc1 (configuration not stated) | 5 | 4.1 | 30 | 71% | -8% | -0.2 | 3.4%
Cc1cccc(N2C(=O)C3C4C=CC(C4)C3C2=O)c1 (configuration not stated) | 2 | 4.1 | -5 | -0.6% | 16% | 0.8 | -0.2%
CC(C)(Oc1ccc(Br)cc1)C(=O)Nc1cc(-c2nc3ccccc3[nH]2)ccc1Cl | nt | nt | 15 | 4.0% | nt | 1.5 | 0.7%
CC(C)CNC(=O)N[C@@H](CC(C)C)C(=O)O | -11 | 2.5 | nt | -0.3% | 0% | nt | -0.1%
CCCCCCSC1=C(C#N)C(c2ccccc2)CC(=O)N1 (configuration not stated) | 2 | 1.1 | 13 | 0.0% | 6% | 1.2 | nt
COc1cccc(C(C)(O)c2nc(-c3ccc(OC)nc3)cs2)c1 (configuration not stated) | nt | nt | 4 | -0.6% | nt | 1.1 | 0.2%
CCc1ccc(CN(C)C(=O)CCc2nnc(CCc3cccc(OC)c3)o2)nc1 | 1 | 1.3 | 8 | -1.9% | 10% | 1.2 | 1.0%
CCc1ccc(-n2c(=O)c3ccccc3n(Cc3ccccc3C#N)c2=O)cc1 | nt | nt | 9 | -7.1% | nt | -0.9 | -0.8%
O=C(/C=C/c1cccc(Cl)c1)c1nc2ccccc2[nH]1 | 29 | 20 | -1 | -6.2% | ? | 2.5 | -2.9%
CC1=C(C(=O)Nc2ccccc2)C(c2ccncc2)n2nc(SCc3ccccc3)nc2N1 (configuration not stated) | nt | nt | -3 | 0.4% | nt | -0.1 | 0.4%
COc1ccc(CC2CCOC2=O)cc1 (configuration not stated) | 2 | 6.2 | -13 | 0.1% | 12% | -0.4 | -1.4%
COc1cccc(OC)c1C(=O)Nn1c(C2CCC2)nc2ccccc2c1=O | -15 | 4.2 | 10 | -0.5% | 17% | 0.9 | 5.7%[38.3 µM]
O=C(NCc1cccs1)C1CCC(=O)N1C1CCCCC1 (configuration not stated) | 1 | 4.9 | -18 | -0.3% | -7% | 0.6 | 10.0%[38.3 µM]
COc1cc(C(=O)OCc2ccc([N+](=O)[O-])cc2)cc(OC)c1OC | -2 | -1.9 | 7 | 1.1% | -10% | 0.6 | 2.6%
COc1ccc(C(=O)NN/C(C)=C/C(=O)c2ccccc2)cc1 | 11 | -3.3 | 9 | nt | 17% | -0.7 | 1.4%
O=C(O)c1ccc(CNC(=O)C23CC4CC(CC(C4)C2)C3)cc1 | -5 | -8.6 | 49 | nt | 6% | 0.0 | 1.1%
C=CC[N+](C)(C)c1ccc(CCC(=O)CCc2ccc([N+](C)(C)CC=C)cc2)cc1 | ? | nt | -10 | -0.1% | nt | 0.1 | -0.2%
Cc1cc(CN(C)C)c(O)c(C2(C)CCCCC2)c1 | 3 | 1.7 | -3 | 22µM* | 13% | -0.2 | 1.2%
COCCn1c(SCC(=O)Nc2cccnc2Cl)nc2ccccc2c1=O | -8 | nt | 20 | -0.2% | nt | -0.5 | 1.7%
C=CCN=C1SC(C)(C)C(=O)N1S(=O)(=O)c1ccc(C)cc1 | 2 | 0.6 | -6 | nt | -3% | -0.3 | 2.7%

One compound at a time (already shown):
COCCn1c(SCC(=O)Nc2cccnc2Cl)nc2ccccc2c1=O in the list: TRPV1 PAM: -8; Menin-MLL FL inh: nt; TRPML1 blocker: 20; ClpP mod: -0.2%; Sfp inh: nt; TRPML1 ag: -0.5; PINK1 expr mod: 1.7%
O=C(O)c1ccc(CNC(=O)C23CC4CC(CC(C4)C2)C3)cc1 in the list: TRPV1 PAM: -5; Menin-MLL FL inh: -8.6; TRPML1 blocker: 49; ClpP mod: nt; Sfp inh: 6%; TRPML1 ag: 0.0; PINK1 expr mod: 1.1%

More entries
SMILES | TRPV1 PAM | Menin-MLL FL inh | TRPML1 blocker | ClpP mod | Sfp inh | TRPML1 ag | PINK1 expr mod
Cc1nnc(NC(=O)CC(CN(C)S(=O)(=O)c2ccccc2)c2ccccc2)s1 (configuration not stated) | -7 | 0.9 | 1 | 2.0% | 27% | 0.9 | 0.7%
O=C1NC(=O)C(c2ccccc2)(c2ccccn2)N1 (configuration not stated) | nt | nt | 1 | nt | nt | -0.4 | -0.1%
O=C(NC1CCS(=O)(=O)C1)c1cccc(S(=O)(=O)N2CCCC2)c1 (configuration not stated) | 8 | -3.4 | 39 | nt | 14% | -0.1 | 2.4%
COc1ccc(CCNC(=O)c2ccco2)cc1OC | 12 | -3.6 | 0 | nt | 7% | 0.7 | 3.1%
CC1CN(Cc2ccccc2)c2nc3c(c(=O)n(CC(N)=O)c(=O)n3C)n2C1 (configuration not stated) | 0 | 2.4 | 9 | -3.9% | 10% | -0.4 | 0.3%
COc1cc(-c2nnc(SCC(=O)N(C)C3CCS(=O)(=O)C3)o2)cc(OC)c1OC (configuration not stated) | 0 | 3.9 | 10 | nt | 14% | -0.6 | 4.8%
CC(=O)Nc1sc2c(c1CN1CCN(c3ccc(F)cc3)CC1)CCCC2 | -3 | 4.5 | 5 | 0.6% | 3% | -0.9 | -0.3%
CCOC(=O)C1(Cc2cccc(OC)c2)CCCN(Cc2c(C)nn(C(C)C)c2C)C1 (configuration not stated) | -7 | -1.9 | 10 | -0.3% | 15% | -0.3 | 0.2%
CCOC(=O)C1CCN(c2nc3ccccc3nc2C(C#N)C(=O)OC(C)C)CC1 (configuration not stated) | -17 | ? | 34 | -3.5% | 7% | 3.4 | 6.7%
COc1ncnc2c1NC(=O)CS2 | 0 | 0.8 | 3 | -22% | 4% | -0.8 | -0.3%
Cc1cc(C)c(NC(=O)Cn2c(=O)n(CC(=O)NCCc3ccccc3)c(=O)c3ccccc32)c(C)c1 | nt | nt | 21 | 0.9% | nt | 0.3 | 1.7%
COc1cc(C2C(C#N)=C(C)NC3=C2C(=O)CC(C)(C)C3)ccc1OCCO (configuration not stated) | 6 | 2.8 | -9 | -6.7% | 14% | -0.4 | -0.3%
CC(C)c1ccc(C2N3CC4(C)CN2CC(c2ccccc2)(C3)C4=O)cc1 (configuration not stated) | nt | nt | 5 | -0.5% | nt | 0.8 | -1.7%
CCOC(=O)c1oc2ccc3c(c2c1C)C(=O)CC1(CCN(C(=O)OCC)CC1)O3 | 17 | 4.0 | -5 | -5.3% | -14% | 0.5 | 0.9%
CC1CCCC(NC(=O)COC(=O)COc2ccc(C#N)cc2)C1C (configuration not stated) | nt | nt | -1 | 2.1% | nt | 0.2 | -0.1%
N/C(Cc1ccc([N+](=O)[O-])cc1)=N\OC(=O)c1ccc(Br)o1 | 0 | 2.9 | -2 | -4.0% | 21% | 2.0 | -0.2%
O=C(CN1C(=O)C2C3CCC(C3)C2C1=O)OCC(=O)c1ccc(Br)cc1 (configuration not stated) | 4 | nt | 5 | -0.2% | -4% | -0.4 | -0.5%
CCN1C(=O)C(O)(CC(=O)c2ccc3c(c2)OCCO3)c2ccccc21 (configuration not stated) | 18 | 2.2 | -4 | 0.1% | 13% | -0.6 | 0.8%
C=CCN1CN(Cc2ccco2)CNC1=S | -2 | -1.5 | -8 | 1.0% | 14% | -0.3 | 1.9%
CCOC(=O)c1c(-c2ccc(C)cc2)csc1NC(=O)C1CC=CCC1C(=O)O (configuration not stated) | ? | 2.2 | -6 | -13% | -15% | 0.2 | 3.2%
O=C(c1ccc(C(F)(F)F)cc1)N1CCC(=O)N(C(COCc2ccc(Cl)cc2)Cc2ccccc2)CC1 (configuration not stated) | -4 | 4.8 | -2 | 1.0% | 6% | 0.3 | 0.3%
CN(C)Cc1c(C(=O)N/N=C/c2cccc(OCc3ccc(F)cc3)c2)nnn1-c1nonc1N | 4 | -3.1 | 15 | -0.4% | 8% | -0.5 | 1.9%
Cc1nnc(SCSc2nnc(C)s2)s1 | 4 | 1.5 | 7 | 0.7% | 10% | -1.0 | -0.8%
CC(C)NC(=O)N1CCC2(CC1)CCN(C(=O)c1csnn1)CC2 | nt | 2.9 | nt | nt | 14% | nt | 0.9%
O=C(/C=C/c1cn(-c2ccccc2)nc1-c1cccnc1)N1CCCCC1 | 7 | -3.4 | 3 | -1.4% | -9% | 4.9 | 0.4%
CCN(CC)CCCNC(=O)CSc1nc2nc(C)c(Cc3ccccc3C)c(C)n2n1 | nt | nt | 15 | -10% | nt | -0.9 | -2.1%
